RecA intein inh – inhibitors of M. tuberculosis RecA intein splicing; P9WHJ3; cell-free RecA intein splicing, fluorescence; inhibition, %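 (about 9 µM by stock and volumes)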; hit rate 0.75% among 290,000; AID 2221; in the data active means inhibition above about 30%; inconclusive means no clear call, values can overlap the other calls;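 further: 0% = vehicle wells and 100% = reference inhibitor control wells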
Target sequence (P9WHJ3 whole entry, looked up): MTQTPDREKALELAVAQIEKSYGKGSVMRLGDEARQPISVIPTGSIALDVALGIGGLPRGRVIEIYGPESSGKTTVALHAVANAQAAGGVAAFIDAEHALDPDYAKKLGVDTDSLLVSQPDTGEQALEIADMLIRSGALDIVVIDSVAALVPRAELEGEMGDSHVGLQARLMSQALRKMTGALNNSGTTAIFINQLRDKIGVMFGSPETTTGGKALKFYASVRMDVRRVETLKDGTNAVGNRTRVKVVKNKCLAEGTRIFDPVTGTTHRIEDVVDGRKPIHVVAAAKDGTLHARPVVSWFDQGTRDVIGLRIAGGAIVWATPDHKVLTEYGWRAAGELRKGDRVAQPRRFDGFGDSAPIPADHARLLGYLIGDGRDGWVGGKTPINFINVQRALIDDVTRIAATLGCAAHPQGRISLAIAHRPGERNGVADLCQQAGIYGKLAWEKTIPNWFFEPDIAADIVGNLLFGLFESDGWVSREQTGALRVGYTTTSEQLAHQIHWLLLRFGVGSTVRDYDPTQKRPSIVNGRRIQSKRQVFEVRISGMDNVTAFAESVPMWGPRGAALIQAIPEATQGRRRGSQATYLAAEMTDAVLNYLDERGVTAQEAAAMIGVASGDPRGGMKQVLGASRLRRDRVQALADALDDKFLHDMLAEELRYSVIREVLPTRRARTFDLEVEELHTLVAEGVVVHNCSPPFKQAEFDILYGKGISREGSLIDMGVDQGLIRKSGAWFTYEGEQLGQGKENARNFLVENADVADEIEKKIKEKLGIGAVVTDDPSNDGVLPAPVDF
YopH PTP inh – YopH (Yersinia) phosphatase inhibition | fluorescence Ex485/Em525 | inhibition, %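 (about 10 µM by stock and volumes)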 | hit rate 0.16% among 140,000;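 active means inhibition of 50% or more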;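 further: controls were vehicle for no effect and minimum signal wells for full effect; inactives centre near -20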
Arbovirus inh – antivirals against arbovirus infection; arbovirus infection cell-based antiviral screen; inhibition, % at 10 µM; hit rate 0.37% among 200,000; AID 1251;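 active means inhibition from about 30%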;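 further: bluetongue infection of BSR cells; cell survival read as ATP light after 72 h; 0% = infected wells without compound and 100% = uninfected wells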
Mtb bLac sens – beta-lactam sensitization of Mtb H37Rv; hit rate 0.27% among 330,000; inhibition, % at 25 µM; M. tuberculosis H37Rv growth with meropenem, percent inhibition; hits of this screen are not shown here;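 active means about 74% or more and at least 40 points above the plate without the antibiotic, then above 30% in a dose series; inconclusive means first-round hits that could not be retested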;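 further: growth measured after seven days incubation then overnight dye step; 0% = bacteria only wells and 100% = bacteria with antibiotic; twin plates without the antibiotic show which effects depend on it; some results filed as inactive read as strong as hits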
Mtb growth – M. tuberculosis H37Rv growth inhibitors, H37Rv strain (AID 1626); hit rate 0.95% among 220,000; inhibition, % at 10 µM, or IC50 in µM where a hit was titrated; M. tuberculosis H37Rv growth inhibition; higher % means a stronger effect;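 active means confirmed in a dose series; inconclusive means inhibition above 80% but not taken into the dose series; inactive means below 80% or under 30% at every dose of the series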;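 further: bacteria incubated seven days before Alamar blue readout; 0% = bacteria only wells and 100% = bacteria with antibiotic wells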
Arbovirus inh repeat – recorded beside Arbovirus inh, whose call it bears; inhibition, %; measured here: 10K subset replicate screen; many hits read low in the repeat;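 first of two repeat runs on a subset; 0% = infected and 100% = uninfected wells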
Numbers without * were called inactive; ? = inconclusive; · = no result given. Some of the compounds tested (hit frequency here may not be typical).

SMILES	RecA intein inh	YopH PTP inh	Arbovirus inh	Mtb bLac sens	Mtb growth	others
Cc1nn(CC(=O)N2CCN(c3ccccc3)CC2)c(=O)c2ccccc12	2.8	·	·	-5	·
FC(F)(F)c1cc(-c2ccco2)nc(N2CCN(Cc3ccccc3)CC2)n1	20	-28	-15	3	0%
O=C(CN1CCC(C(=O)c2ccc(Cl)cc2)CC1)NC1CCCC1	-0.4	·	·	0	·
O=c1c2ccccc2sc2ccc(C#CC3(O)CCCCC3)cc12	-63	·	·	84	12%
COc1ccc(OCCN2CCN(C(=O)c3ccc(OC)c(OC)c3)CC2)cc1	-1.3	·	·	-5	·
COc1ccc(N2CCN(CCNC(=O)Nc3cc(Cl)ccc3Cl)CC2)cc1	-0.5	·	·	2	·
CCOC(=O)CSc1nc(C)cc(=O)[nH]1	-2.3	-29	2	-7	-9%
Cc1ccc(N2CC(C(=O)OCC(=O)c3ccc[nH]3)CC2=O)cc1 (configuration not stated)	-0.1	·	·	21	·
CC(C)Oc1ccc(Nc2ncnc3ccccc23)cc1	-1.4	·	1	12	4%
COc1ccccc1NC(=O)c1sc2nc(C)cc(C)c2c1N	-7.5	·	·	-3	·
COc1ccc(C(=O)CCC(C)(C)[N+](=O)[O-])cc1	·	·	13	-4	-7%
COC(=O)c1ccccc1NC(=O)CSc1nncn1-c1cccnc1	2.4	·	·	-1	·
O=C1NC2(CCOc3ccccc32)C(=O)N1CC(=O)N(Cc1ccccc1)C1CCS(=O)(=O)C1 (configuration not stated)	2.4	-26	9	4	1%
O=c1c2cc(NC(=S)NCCN3CCCCCC3)ccc2nc2n1CCCCC2	·	·	-6	-3	0%
CCOC(=O)CN(C(=O)CSc1nnc2c(n1)[nH]c1ccccc12)c1ccccc1	-2.6	-4	-7	6	-7%
Cc1ccc(CCN2CC(C(=O)NCCc3ccccc3)CC2=O)cc1 (configuration not stated)	1.0	·	·	-5	·
Fc1ccc(COc2ccccc2C(=S)N2CCCC2)cc1	6.2	-20	-3	-6	7%
Cn1c(SCC(=O)NC2CCCC2)nnc1-c1ccncc1	-2.8	·	-3	-8	-8%
Cc1cc(SCC(=O)Nc2ccccc2)n2ncc(-c3ccccc3)c2n1	-9.5	·	·	-2	2%
COC(=O)Cc1c(C)c2ccc(OCC(=O)c3ccc(OC)c(OC)c3)cc2oc1=O	0.0	·	·	0	·
COC(=O)c1c(C)nc(C)c(C(=O)OC)c1-c1ccc(OC)cc1	-0.9	·	·	-3	-5%
CC(=O)OC1(C(F)(F)F)Oc2ccccc2NC1=O (configuration not stated)	3.1	8	7	-15	0%
N#C/C(=N\Nc1ccccc1F)C(=N)N1CCCCC1	-1.6	-24	-2	1	-6%
CC(C)(C)NC(=O)C(c1ccco1)N(C(=O)Cn1nnc(-c2ccc(F)cc2)n1)c1ccccc1F (configuration not stated)	9.5	3	7	-12	-6%
O=C(CSc1ccc(-c2ccccn2)nn1)Nc1nccs1	-1.4	·	-1	10	3%
CS(=O)(=O)N(CC(=O)Nc1cccc(Br)c1)Cc1ccccc1	-0.7	·	·	1	·
O=c1cc[nH]c2c(C(F)(F)F)cccc12	2.1	-38	2	-14	-1%
COc1ccc(NC(=O)CSCC(=O)Nc2ccc(S(=O)(=O)N3CCCCC3)cc2)cc1	-0.9	·	·	-15	·
Cc1ccc2[nH]c(C(F)(F)F)cc(=O)c2c1	-0.6	·	·	2	·
Oc1cccc(/C=N/Nc2nn3cnnc3c3ccccc23)c1	-5.8	·	·	-4	0%
O=C(Nc1nnc(CCS(=O)(=O)c2ccc3ccccc3c2)s1)c1ccc([N+](=O)[O-])cc1	-1.2	2	-10	-2	-3%
O=c1c2c3nc4ccccc4nc3n(CC3CCCO3)c2ncn1CCc1ccccc1 (configuration not stated)	-3.7	-14	-5	-11	7%
O=C1/C(=C/c2ccc(O)c([N+](=O)[O-])c2)SC(=S)N1Cc1ccccc1	6.1	·	-12	6	8%
CCN(CC)C(=O)C1CCCN(c2ccc([N+](=O)[O-])cc2/C=N/NC(=O)c2cccc(Br)c2)C1 (configuration not stated)	0.4	6	1	-3	-3%
Cc1ccc(S(=O)(=O)N2CCCC(C(=O)NCc3ccccn3)C2)cc1 (configuration not stated)	0.8	-5	7	1	-18%
COc1ccc(C/C(N)=N/OC(C)=O)cc1OC	-1.7	-8	1	-4	1%
COC(=O)C1=C(c2ccccc2)C[C@@H]2CC[C@H]1N2C(=O)NC(C)C	-2.1	·	·	-4	-6%
C=CCn1c(Cc2nc3ccccc3[nH]2)n[nH]c1=S	0.5	-7	5	-5	-2%
CC1(C)CC(=O)C2=C(C1)N(c1ccc(F)cc1)C(=O)NC2(C(F)(F)F)C(F)(F)F	2.2	-15	7	-1	-6%
Cc1nc2nc[nH]n2c(=O)c1NC(=O)CCc1ccccc1	-2.5	-31	1	3	-11%
CC(=O)Nc1ccc(S(=O)(=O)N2CCN(Cc3ccncc3)CC2)cc1	-4.4	3	4	-4	-6%
CC(C)(C)c1csc(NC(=O)c2cccnc2)n1	-0.9	·	·	-2	·
Cc1ccc(-n2nnnc2-c2cnc(N3CCCC3)nc2C(F)(F)F)cc1	11	-10	-24	4	-5%
O=C1CC(C(=O)Nc2ccc(C(=O)N3CCOCC3)cc2)C2(CCCCC2)O1 (configuration not stated)	·	8	-3	-1	-6%
O=S(=O)(c1ccccc1C(F)(F)F)N1CCN(S(=O)(=O)c2ccccc2C(F)(F)F)CC1	0.3	-12	-3	-2	-9%
Cc1cccc(NC(=O)N2CCCC2C(=O)Nc2ccccc2)c1 (configuration not stated)	-0.1	·	-1	-9	2%
Cc1noc(C)c1COc1ccc2ccc(=O)oc2c1	·	·	-5	6	6%
O=c1c2cnn(-c3ccccc3)c2nc(-c2cccs2)n1-c1cccc(Cl)c1	-4.9	-14	0	16	·
N#Cc1nc(-c2ccccc2Cl)oc1NCC1CCCO1 (configuration not stated)	-0.5	-42	-2	1	8%	Arbovirus inh repeat=-3
CC(=NCCN1CCN(C(=S)Nc2ccccc2)CC1)C1=C(O)CC(C)(C)CC1=O	-2.1	-27	2	2	0%
NS(=O)(=O)c1ccc(CCNC(=O)c2cncc(Br)c2)cc1	-1.0	-21	6	-7	16%
C#CC1(NC(=O)NS(=O)(=O)c2ccc(C)cc2)CCCCC1	-1.6	·	·	-3	·
CC(=O)[C@H]1[C@H](C#N)C[C@H]2[C@@H]3CC=C4C[C@@H](O)CC[C@]4(C)[C@H]3CC[C@@]21C	0.7	-51	5	-6	-10%
COc1cccc(-c2nc(CS(=O)(=O)CC(=O)Nc3c(C)cccc3C)c(C)o2)c1	-0.9	-40	-11	0	3%
CSc1ccc(/C=C(/NC(=O)c2ccccc2)C(=O)NCCN2CCOCC2)cc1	-2.0	·	·	-16	·
Cc1csc(NC(=O)CSCC(=O)O)c1-c1nc2ccccc2s1	-0.9	·	·	43	6%
O=S(=O)(/N=C(\c1ccccc1)N1CCOCC1)c1cccs1	0.2	31	10	10	0%
CC(C)N1CCc2[nH]c(=S)[nH]c(=O)c2C1	-0.7	-6	-3	1	-10%
Clc1ccc2nc(-c3ccc(Cl)nc3)[nH]c2c1	2.6	·	·	12	·
Fc1ccc(NC(=S)NC2CC3CCC(C2)N3Cc2ccco2)cc1 (configuration not stated)	2.5	·	-1	-8	-4%

Ordered by count of non-hydrogen atoms (ascending): six of the compounds above
SMILES	RecA intein inh	YopH PTP inh	Arbovirus inh	Mtb bLac sens	Mtb growth	others
CC(C)(C)c1csc(NC(=O)c2cccnc2)n1	-0.9	·	·	-2	·
N#Cc1nc(-c2ccccc2Cl)oc1NCC1CCCO1 (configuration not stated)	-0.5	-42	-2	1	8%	Arbovirus inh repeat=-3
Cc1csc(NC(=O)CSCC(=O)O)c1-c1nc2ccccc2s1	-0.9	·	·	43	6%
CC(=O)[C@H]1[C@H](C#N)C[C@H]2[C@@H]3CC=C4C[C@@H](O)CC[C@]4(C)[C@H]3CC[C@@]21C	0.7	-51	5	-6	-10%
Cc1ccc(-n2nnnc2-c2cnc(N3CCCC3)nc2C(F)(F)F)cc1	11	-10	-24	4	-5%
O=c1c2cnn(-c3ccccc3)c2nc(-c2cccs2)n1-c1cccc(Cl)c1	-4.9	-14	0	16	·

Next entries
SMILES	RecA intein inh	YopH PTP inh	Arbovirus inh	Mtb bLac sens	Mtb growth	others
CCCNC(=O)C1(CC2CC(c3ccccc3)=NO2)CCN(C(=O)CCCCCBr)CC1 (configuration not stated)	6.6	·	·	2	-11%
COc1cc(C)c2c(c1C=O)Oc1c(c(C)c(O)c3c1C(O)OC3=O)OC2=O (configuration not stated)	·	·	0	68	-7%
O=C(N/N=C/c1ccc(O)c([N+](=O)[O-])c1)C1CC1(c1ccccc1)c1ccccc1 (configuration not stated)	5.3	·	26	-2	-6%
O=C(Nc1ccccc1N1CCCC1)c1ccc(Br)o1	3.1	24	12	14	6%
O=C(Nc1ccc2oc(-c3ccncc3)nc2c1)c1ccc(Br)o1	1.6	·	·	0	·
C=CCC(CC=C)(NC(=O)c1cccc(C)c1)c1ccccc1	-2.2	-14	-6	-10	0%
Cc1ccc(/C=C2\SC(N3CCCCC3)=NC2=O)cc1	-0.1	·	·	97	·
O=C(Nc1ccc(F)cc1F)c1cc2ccccc2oc1=O	-0.5	·	·	2	·
COc1ccc(C(O)(C(C)C)C(CN2CCOCC2)c2ccc(Cl)cc2)cc1 (configuration not stated)	-1.7	·	·	-2	·
C#CC[N+](C)(C)C(C#Cc1ccccc1)CC=C (configuration not stated)	0.7	-40	2	-3	-1%
COc1ccccc1NC(=O)CN1C(=O)CC(C)S(=O)(=O)c2ccccc21 (configuration not stated)	3.2	·	·	-7	·
Cc1ccccc1OCC(O)CN1CCN(c2ccccn2)CC1 (configuration not stated)	-1.2	·	5	-8	11%
Clc1cccc(CSc2nc3ccncc3[nH]2)c1	-6.4	-48	-17	3	5%
O=C(CSc1nc(Nc2ccccc2)nc(N2CCOCC2)n1)N1CCCC1	-5.9	-20	1	-12	1%
CCN1C(=O)Cc2cc(S(=O)(=O)NCCc3ccccc3)ccc21	7.4	·	·	-3	·
CC(=O)c1cn(CC(=O)Nc2ccc(C)cc2)c2ccccc12	0.6	9	-1	2	0%
Cc1ccc(CNC(=O)CCS(=O)(=O)c2ccc3c(c2)NC(=O)C(C)S3)cc1 (configuration not stated)	-1.1	·	·	-1	·
O=C(NCc1nc2ccccc2[nH]1)c1cccc(S(=O)(=O)N2CCCCC2)c1	6.1	·	2	1	6%
CN(c1ccccc1)c1nc(N)c([N+](=O)[O-])c(N2CCCCCC2)n1	6.4	·	·	50	8%
Cc1ccc(C23CC4CC(CC(C(=O)N5CCOCC5)(C4)C2)C3)cc1	6.7	-18	16	7	2%

Fetched by structure from above:
SMILES	RecA intein inh	YopH PTP inh	Arbovirus inh	Mtb bLac sens	Mtb growth	others
COc1ccc(C(O)(C(C)C)C(CN2CCOCC2)c2ccc(Cl)cc2)cc1 (configuration not stated)	-1.7	·	·	-2	·
C=CCC(CC=C)(NC(=O)c1cccc(C)c1)c1ccccc1	-2.2	-14	-6	-10	0%
O=C(Nc1ccc2oc(-c3ccncc3)nc2c1)c1ccc(Br)o1	1.6	·	·	0	·
CN(c1ccccc1)c1nc(N)c([N+](=O)[O-])c(N2CCCCCC2)n1	6.4	·	·	50	8%

Continuation.
SMILES	RecA intein inh	YopH PTP inh	Arbovirus inh	Mtb bLac sens	Mtb growth	others
CCc1nc2oc3cc(OC)ccc3c(=O)c2c(=O)n1Cc1ccccc1	4.4	-24	13	?	7%
CCN(C(=O)COC(=O)c1ccc2c(=O)n3c(nc2c1)CCC3)C1CCS(=O)(=O)C1 (configuration not stated)	-3.7	·	6	-7	3%
C/C(CC(=O)Nc1ccc2c(c1)OCCO2)=N\NC(=O)c1cccc(O)c1	1.7	·	·	52	·
Cc1ccc(/C=N/NC(=O)C(O)c2ccccc2)o1 (configuration not stated)	0.8	·	·	0	-9%
CC(C)(C)CC(=O)N[C@@H](Cc1ccccc1)c1nc2ccccc2[nH]1	2.4	·	·	-1	·
C/C(=N\Nc1cc(N2CCOCC2)ncn1)c1ccccc1	-1.6	·	·	2	·
O=S(=O)(c1ccc2nnn(O)c2c1)N1CCCCC1	1.1	·	2	-1	-1%
CCCCCn1c(NC(=O)c2ccco2)c(C(=O)OCC)c2nc3ccccc3nc21	-77	22	-6	4	12%
O=C(NC1CCCCC1)C(c1ccc(F)cc1)N(C(=O)Cc1ccsc1)c1ccc(F)cc1 (configuration not stated)	-1.1	-34	3	3	-2%
Cc1c(C(=O)N/N=C/c2cccnc2)nnn1-c1nonc1N	-0.4	·	·	12	·
CC(C)C(=O)c1cn(CC(=O)NCC2CCCO2)c2ccccc12 (configuration not stated)	-2.9	-44	8	-3	-16%
CC(C)CC(C(=O)O)N1C(=O)[C@@H]2[C@H](C1=O)[C@@H]1C[C@H]2C(Br)C1Br (some centres not stated)	0.3	-23	-1	1	1%
Cc1ccccc1Nc1c(-c2ccccn2)nc2c(C)cccn12	0.5	·	6	9	20µM*
